# High-throughput results deposited in PubChem by SRMLSC.
# HSV augment: enhancers of HSV replication in host cells, fold increase, host cell viability. HSV replication augmentation in cells. maximum fold increase. 220,000 tested, 0.005% active. AID 1956, 2009;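 active = peak rise of 1.5-fold or more in the series; tested in PC3 cells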;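 note: first round at 10 µM; read as green reporter fluorescence; hits show the peak of a series up to 25 µM; 1 = signal of infected wells without compound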
# HSV augment primary fold: second read-out of HSV augment, no call of its own (marks repeat the call); fold increase; compound at 10 µM; measured here: primary screen fold increase 10 uM; tested in PC3 cells;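 GFP signal in the first replicate; 1 = infected wells without compound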
# Starred values were filed as active, the others as inactive; i = inactive. An excerpt, so the mix of outcomes need not match the whole.
# Start of the data: the first two compounds as a preview:
structure: C[C@H]1CC[C@]2(O[C@H](CCO)C[C@H](O)[C@H]2O)O1
  HSV augment: i
  HSV augment primary fold: 0.99
structure: COC(C/C=C/[C@@H](O)[C@@H](C)OCc1ccccc1)OC
  HSV augment: i
  HSV augment primary fold: 0.77

# Main list, from the first entry:
structure: C[C@H]1CC[C@]2(O[C@H](CCO)C[C@H](O)[C@H]2O)O1
  HSV augment: i
  HSV augment primary fold: 0.99
structure: COC(C/C=C/[C@@H](O)[C@@H](C)OCc1ccccc1)OC
  HSV augment: i
  HSV augment primary fold: 0.77
structure: COc1ccc(C#Cc2c(-c3ccc(OC)cc3)oc3ccc(-c4ccc(OC)cc4)cc23)cc1
  HSV augment: i
  HSV augment primary fold: 0.73
structure: O=C(NCc1ccccc1)[C@]1(C(F)(F)F)C[C@H](CCc2ccccc2)CCCO1
  HSV augment: i
  HSV augment primary fold: 0.54
structure: CCOC(=O)C1Nc2ccccc2C2C(O)C(O)CC12 (stereo not drawn)
  HSV augment: i
  HSV augment primary fold: 0.78
structure: Cc1ccccc1CN1[C@@H](C(C)C)COCCS1(=O)=O
  HSV augment: i
  HSV augment primary fold: 0.87
structure: C#Cc1ccc([C@@H]2C=C(C(=O)NC3CC3)O[C@H](OCc3ccc(CO)cc3)C2)cc1
  HSV augment: i
  HSV augment primary fold: 0.73
structure: COc1ccc(C2=NOC(C)(c3nnc(-c4ccc(Cl)cc4)o3)C2)cc1 (stereo not drawn)
  HSV augment: i
  HSV augment primary fold: 0.84
structure: Cc1ccc(O)c([C@H](CCN(C(C)C)C(C)C)c2ccccc2)c1
  HSV augment: i
  HSV augment primary fold: 0.84
structure: COc1ccc(CNC(=O)C2(CC3CC(c4ccccc4)=NO3)CCN(C(=O)CCCCCBr)CC2)cc1 (stereo not drawn)
  HSV augment: i
  HSV augment primary fold: 0.91
structure: CCC(C)c1nc2c(c(N3CCC3=O)c1-c1ccccc1)CCCC2 (stereo not drawn)
  HSV augment: i
  HSV augment primary fold: 0.94
structure: CC1CCN(c2ccc3c(c2)S(=O)(=O)c2ccccc2C3=O)CC1
  HSV augment: i
  HSV augment primary fold: 1.1
structure: CS(=O)(=O)N1c2ccccc2[C@]2(Br)C[C@H]3C(=O)N[C@@H](Cc4ccccc4)C(=O)N3[C@H]12
  HSV augment: i
  HSV augment primary fold: 0.93
structure: C=C1CCN(c2ccc(C(=O)O)cc2[N+](=O)[O-])CC1
  HSV augment: i
  HSV augment primary fold: 1.2
structure: COC(=O)C1N[C@@H]([C@@H](NC(=O)COc2ccccc2)C(=O)NCc2ccc(OC)cc2)SC1(C)C (stereo partly drawn)
  HSV augment: i
  HSV augment primary fold: 0.93
structure: Cn1ccnc1-c1nnn(-c2ccc(F)cc2)n1
  HSV augment: i
  HSV augment primary fold: 1.1
structure: CCC1(CC)C(=O)C2=C3C1[C@H](C(=O)OC)C=C(C(=O)OC)C[C@H]3[C@H]1C(=O)NC(=O)[C@H]1[C@H]2C (stereo partly drawn)
  HSV augment: i
  HSV augment primary fold: 0.87
structure: CCOC(=O)C1C2C=CC(CC2)N1c1ccccc1 (stereo not drawn)
  HSV augment: i
  HSV augment primary fold: 1.1
structure: CCOC(=O)Cn1c(=O)c2c(nc(Br)n2Cc2ccc(Cl)cc2)n(C)c1=O
  HSV augment: i
  HSV augment primary fold: 1.2
structure: CC1(C)C=Cc2c(ccc(-c3coc4cc(O)ccc4c3=O)c2O)O1
  HSV augment: i
  HSV augment primary fold: 0.88
structure: CC(C)(C)OC(=O)NCCCCC1=CC2=CC(=O)C(C)(O)C(=O)C2=CO1 (stereo not drawn)
  HSV augment: i
  HSV augment primary fold: 0.89
structure: Cc1nn2c3c(cnc2c1-c1ccc(Cl)cc1)C(=O)CC(c1ccco1)C3 (stereo not drawn)
  HSV augment: i
  HSV augment primary fold: 1.2
structure: CC1(O)C(=O)C=C2C=C(c3ccsc3)OC=C2C1=O (stereo not drawn)
  HSV augment: i
  HSV augment primary fold: 0.9
structure: O=C(O)c1ccn[nH]1
  HSV augment: i
  HSV augment primary fold: 1.1
structure: C#CCCOC(=O)N1C2=NC(C(=O)OC)=C(C(=O)OC)[C@@H]3N(C)c4ccc(OC)cc4[C@]23C[C@H]1C(=O)OC
  HSV augment: i
  HSV augment primary fold: 0.84

# Some of these compounds in order of their number in HSV augment primary fold, lowest first.
SMILES,HSV augment primary fold
COC(C/C=C/[C@@H](O)[C@@H](C)OCc1ccccc1)OC,0.77
CCOC(=O)C1Nc2ccccc2C2C(O)C(O)CC12 (stereo not drawn),0.78
C#CCCOC(=O)N1C2=NC(C(=O)OC)=C(C(=O)OC)[C@@H]3N(C)c4ccc(OC)cc4[C@]23C[C@H]1C(=O)OC,0.84
CC(C)(C)OC(=O)NCCCCC1=CC2=CC(=O)C(C)(O)C(=O)C2=CO1 (stereo not drawn),0.89
COc1ccc(CNC(=O)C2(CC3CC(c4ccccc4)=NO3)CCN(C(=O)CCCCCBr)CC2)cc1 (stereo not drawn),0.91
Cn1ccnc1-c1nnn(-c2ccc(F)cc2)n1,1.1

# (continued)
structure: Cc1ccc(CNC(=O)c2cc3c(=O)n4ccccc4nc3n(Cc3ccco3)c2=N)cc1
  HSV augment: i
  HSV augment primary fold: 0.75
structure: C=CCOC(=O)C1=C[C@H](c2ccc3c(c2)OCO3)C[C@H](OCCCCO)O1
  HSV augment: i
  HSV augment primary fold: 0.92
structure: COCCNc1nc(-c2cc(C(=O)Nc3ccccc3)on2)cc(C(C)C)n1
  HSV augment: i
  HSV augment primary fold: 0.63
structure: COCCN1CCN(C(=O)c2ccc3c(c2)S(=O)(=O)c2ccccc2C3=O)CC1
  HSV augment: i
  HSV augment primary fold: 1.1
structure: CC1(C)c2[nH]c3ccccc3c2C[C@@H]2C(=O)N(Cc3ccccc3)C(=O)N21
  HSV augment: i
  HSV augment primary fold: 0.91
structure: CC1(OC(=O)c2cnc3ccccc3n2)C(=O)C=C2C=C(C3CC3)OC=C2C1=O (stereo not drawn)
  HSV augment: i
  HSV augment primary fold: 1.1
structure: COc1ccccc1C1=NOC(C)(c2sc(-c3ccccc3)nc2C)C1 (stereo not drawn)
  HSV augment: i
  HSV augment primary fold: 1
structure: COc1cc2sc3ccc(C#CC4(O)CCCCC4)cc3c(=O)c2cc1OC
  HSV augment: i
  HSV augment primary fold: 0.67
structure: CCn1c(SCC(=O)N2c3ccccc3Sc3ccccc32)nc2c1c(=O)n(C)c(=O)n2C
  HSV augment: i
  HSV augment primary fold: 0.81
structure: Nc1ncnc2c1nc(Sc1ccc(Cl)cc1)n2[C@@H]1O[C@@H]2COP(=O)(O)O[C@H]2[C@H]1O
  HSV augment: i
  HSV augment primary fold: 0.79
structure: COC(=O)C1=C(C(=O)OC)[C@@H]2Nc3ccccc3[C@@]23C[C@@H](C(=O)OC)N(C(=O)CC(C)C)C3=N1
  HSV augment: i
  HSV augment primary fold: 0.87
structure: COc1cc2sc3ccc(-c4ccc(N(C)C)nc4)cc3c(=O)c2cc1OC
  HSV augment: i
  HSV augment primary fold: 0.75
structure: O=C(O)c1cc(=O)c2c(Cl)cc(Cl)cc2[nH]1
  HSV augment: i
  HSV augment primary fold: 0.88
structure: O=S(=O)(O)CCS
  HSV augment: i
  HSV augment primary fold: 0.97
structure: COC(=O)c1ccc(C(NC(=O)OCc2ccccc2)/C(F)=C/[C@@H](C)C(=O)O)cc1 (stereo partly drawn)
  HSV augment: i
  HSV augment primary fold: 0.86
structure: CCSc1nnc(NC(=O)c2cnccn2)s1
  HSV augment: i
  HSV augment primary fold: 0.91
structure: CC1(c2nnc(-c3ccc(F)cc3)o2)CC(c2cccnc2)=NO1 (stereo not drawn)
  HSV augment: i
  HSV augment primary fold: 1.1
structure: CN1CCC23c4ccccc4NC1C21CCN(C)C3Nc2ccccc21
  HSV augment: i
  HSV augment primary fold: 0.87
structure: C=CCn1c(SCc2cc(=O)n3ccsc3n2)nc2sc(C)c(C)c2c1=O
  HSV augment: i
  HSV augment primary fold: 0.98
structure: COCCNC(=O)c1onc(CSc2ccccn2)c1C(=O)NCCOC
  HSV augment: i
  HSV augment primary fold: 1.2
structure: Cc1csc(N2CCCC2c2nc3cc(Cl)c(N4CCCCC4)cc3n2CCOCCO)n1 (stereo not drawn)
  HSV augment: i
  HSV augment primary fold: 0.88
structure: Nc1c(O)cccc1C(=O)O
  HSV augment: i
  HSV augment primary fold: 0.91
structure: O=C(Nc1ccc(S(=O)(=O)O)cc1)c1ccc2c(c1)S(=O)(=O)c1ccccc1C2=O
  HSV augment: i
  HSV augment primary fold: 0.78
structure: O=C(NCc1cccc(Br)c1)c1cc(-c2ccccc2)nn1CC1CC(c2cccnc2)=NO1 (stereo not drawn)
  HSV augment: i
  HSV augment primary fold: 1
structure: CC(=O)NC(CC(C)C)C(=O)NC(CO)C(=O)NC(CCC(=O)O)C(=O)NC(C)C(=O)NC(CC(C)C)C(N)=O (stereo not drawn)
  HSV augment: i
  HSV augment primary fold: 0.75

# Whole records, quoted from the list.
# Shown for `O=C(NCc1cccc(Br)c1)c1cc(-c2ccccc2)nn1CC1CC(c2cccnc2)=NO1` (stereo not drawn) : HSV augment: i; HSV augment primary fold: 1
# Shown for `Cc1csc(N2CCCC2c2nc3cc(Cl)c(N4CCCCC4)cc3n2CCOCCO)n1` (stereo not drawn) : HSV augment: i; HSV augment primary fold: 0.88
# Shown for `COCCNc1nc(-c2cc(C(=O)Nc3ccccc3)on2)cc(C(C)C)n1` : HSV augment: i; HSV augment primary fold: 0.63

# Continued:
structure: CCO[C@H]1OC(C(=O)O)=C[C@@H](c2coc3ccccc3c2=O)[C@@H]1CCCO
  HSV augment: i
  HSV augment primary fold: 0.92
structure: CCOC(=O)C[C@H]1c2ccccc2S(=O)(=O)N1c1cccc(OC)c1
  HSV augment: i
  HSV augment primary fold: 0.88
structure: COc1ccc([C@H]2/C=C\CN(S(=O)(=O)c3cccc4cccnc34)[C@@H](C)C(=O)N2Cc2ccc(F)cc2)cc1
  HSV augment: i
  HSV augment primary fold: 0.77
structure: CC(C)n1c(SCC(=O)c2ccc3c(c2)OCCO3)nc2c1c(=O)n(C)c(=O)n2C
  HSV augment: i
  HSV augment primary fold: 0.75
structure: C#Cc1ccc([C@@H]2C=C(C(=O)NCc3ccccc3)O[C@H](OCCCCO)C2)cc1
  HSV augment: i
  HSV augment primary fold: 0.67
structure: OCC1OC(n2cnc3c(NC4CCCC4)ncnc32)C(O)C1O (stereo not drawn)
  HSV augment: i
  HSV augment primary fold: 0.96
structure: O=C1c2oc3ccc(Cl)cc3c(=O)c2C(c2ccccn2)N1CCCN1CCOCC1 (stereo not drawn)
  HSV augment: i
  HSV augment primary fold: 0.82
structure: O=C(c1ccc(Cl)c(Cl)c1)N1CCC(=O)N(C(CO)Cc2ccccc2)CC1 (stereo not drawn)
  HSV augment: i
  HSV augment primary fold: 0.9
structure: CCOC(=O)c1c(NC(=O)CSc2nc3c(c(=O)n(C)c(=O)n3C)n2CC)sc(C)c1C
  HSV augment: i
  HSV augment primary fold: 0.93
structure: COC(C/C=C/[C@H](O)[C@@H](C)OCc1ccccc1)OC
  HSV augment: i
  HSV augment primary fold: 0.87
structure: COc1ccc(C2=NOC(C)(c3sc(-c4ccc(Cl)cc4)nc3C)C2)cc1 (stereo not drawn)
  HSV augment: i
  HSV augment primary fold: 1.1
structure: Cc1cccc(C(=O)N[C@@H]2c3ccccc3C[C@@H]2O)n1
  HSV augment: i
  HSV augment primary fold: 1
structure: Cc1cc2oc3ccc(NCCCn4ccnc4)cc3c(=O)c2cc1C
  HSV augment: i
  HSV augment primary fold: 0.99
structure: COc1cc(OC)c2c3c(c(C4CCCCC4)nc2c1)CCC3
  HSV augment: i
  HSV augment primary fold: 1
structure: O=C1c2cc(O)cc(O)c2C(=O)c2c1cc(O)c([C@@H](CO)CCO)c2O
  HSV augment: i
  HSV augment primary fold: 1.1
structure: COC/C=C/C1=CC2=CC(=O)C(C)(OC(=O)c3cnc4ccccc4n3)C(=O)C2=CN1c1ccc(OC)cc1 (stereo not drawn)
  HSV augment: i
  HSV augment primary fold: 0.86
structure: CC(Nc1nc(-c2ccc(F)cc2)cs1)c1nc2cc(Cl)c(N3CCCCC3)cc2n1CCOCCO (stereo not drawn)
  HSV augment: i
  HSV augment primary fold: 0.83
structure: O=C(NC1CC1)C1=C[C@@H](c2ccc(C(F)(F)F)cc2)C[C@@H](OCc2ccc(CO)cc2)O1
  HSV augment: i
  HSV augment primary fold: 0.78
